StopGo reporter – High Throughput Screening for Foot and Mouth Disease Virus Antivirals | human cells with a luciferase reporter of 2A StopGo recoding; control for the full effect not named in the record | Potency, µM (highest dose often 57.9 µM), inactives show at the top dose signal change, negative = less light | actives 1.2% (n = 410,000) | AID 1159524, 2015; active = well fitted falling curve with a large enough effect; inconclusive = small, poorly fitted or top-dose-only effect; inactive = no such curve, though single readings can be large or run the other way; tested in HEK293T cells; note: % is set by controls: 0 for no effect and ±100 for the full control effect; nearly all actives have a fitted effect of over 45% in size; luciferase light after 4 h
MARV entry inh – qHTS for inhibitors of binding or entry into cells for Marburg Virus. Potency, µM (titrated, usually from 37.8 µM), without a hit: at the top dose activity change, negative = inhibition, most hits filed as inhibitors. actives 1.8% (n = 300,000). Marburg virus pseudotyped entry inhibition, cell reporter; control for the full effect not named in the record; about a third of the inactives were read at about 46 µM; active = well fitted inhibition curve with a large enough effect; inconclusive = small, poorly fitted or top-dose-only effect, or effect the other way; inactive = flat fitted curve, though single readings scatter; tested in HEK293 cells; about a fifth of its hits are not listed in these tables; note: % is set by controls: 0 for no effect and ±100 for the full control effect; luciferase read-out
Cruzain noTriton – qHTS Assay for Promiscuous and Specific Inhibitors of Cruzain (without detergent). Cruzipain (Trypanosoma cruzi), P25779. purified cruzain, Z-FR-AMC fluorescence, no detergent. Potency, µM, inactives show max response, negative = inhibition, most hits filed as inhibitors. actives 2.3% (n = 200,000); active = well fitted curve in the direction sought with a large enough effect; inconclusive = small, poorly fitted or top-dose-only effect, or another doubt; inactive = no such curve, though single readings can be large; an effect the other way counts as inactive or inconclusive;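 note: plate controls were enzyme without inhibitor for no effect and buffer without enzyme for full effect; nearly all actives have a fitted effect of over 40% in size; top concentration of the series not given in the record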
Target sequence (P25779 123-467 limits assumed): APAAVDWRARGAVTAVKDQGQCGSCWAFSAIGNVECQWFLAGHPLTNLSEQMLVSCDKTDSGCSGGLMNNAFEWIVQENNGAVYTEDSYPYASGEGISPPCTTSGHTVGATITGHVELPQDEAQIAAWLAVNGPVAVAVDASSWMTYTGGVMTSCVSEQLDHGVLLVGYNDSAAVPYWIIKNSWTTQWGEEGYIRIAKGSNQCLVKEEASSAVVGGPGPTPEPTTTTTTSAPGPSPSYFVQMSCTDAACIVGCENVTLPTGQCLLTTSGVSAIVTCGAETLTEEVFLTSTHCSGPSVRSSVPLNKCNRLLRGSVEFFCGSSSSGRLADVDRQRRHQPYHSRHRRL
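Purified cruzain at 1.5 nM, pre-incubated 15 min with compound at room temperature in 100 mM sodium acetate pH 5.5, 5 mM DTT, 0.00005% Triton X-100. Reaction started with 2 uM Z-FR-AMC; AMC fluorescence increase over 60 s gives rate.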
Cruzain inh Det – qHTS Assay for Promiscuous and Specific Inhibitors of Cruzain (with detergent); actives 0.43% (n = 200,000); Cruzipain (Trypanosoma cruzi), P25779; purified cruzain, Z-FR-AMC fluorescence, 0.01% Triton; AID 1478, 2009; Potency, µM, inactives show max response, negative = inhibition, most hits filed as inhibitors; active = well fitted curve in the direction sought with a large enough effect; inconclusive = small, poorly fitted or top-dose-only effect, or another doubt; inactive = no such curve, though single readings can be large; an effect the other way counts as inactive or inconclusive;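 note: plate controls were neutral wells for no effect and buffer without enzyme for full effect; nearly all actives have a fitted effect of over 40% in size; top concentration of the series not given in the record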
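Steps: dispense cruzain (1.5 nM final) in acetate buffer pH 5.5 with DTT and 0.01% Triton X-100; pin-transfer compounds; incubate 15 min RT; add Z-FR-AMC (2 uM final); read fluorescence every 30 s, using the 60 s intensity change.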
Lassa entry inh – qHTS for Inhibitors of binding or entry into cells for Lassa Virus; Lassa virus pseudotype entry inhibition, cell reporter; control for the full effect not named in the record; Potency, µM (top dose mostly 37.9 µM), inactives show at the highest dose activity change, negative = inhibition, most hits filed as inhibitors; actives 1.2% (n = 300,000); AID 540256, 2011; active means well fitted inhibition curve with a large enough effect; inconclusive means small, poorly fitted or top-dose-only effect, or effect the other way; inactive means flat fitted curve, though single readings scatter; tested in HEK293 cells; note: % is set by controls: 0 for no effect and ±100 for the full control effect; nearly all actives have a fitted effect of over 50% in size; luciferase read-out
NS1 inh – qHTS Assay for Inhibitors of Influenza NS1 Protein Function; S. cerevisiae slowed by influenza A NS1, growth recovery by OD600; Potency, µM (highest dose often 46.1 µM), for the others: at the top dose activity, positive = more growth; actives 0.4% (n = 270,000); note: actives are rising curves; nearly all actives have a fitted effect of over 50% in size
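Growth recovery, yeast-based: influenza A NS1 expressed in S. cerevisiae causes slow growth, and suppressors are detected by OD600. The parent strain without NS1 is used as positive control.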
RE007 growth inh – qHTS Assay for Inhibitors of the HIV-1 protein Vpr. AID 651644, 2012. actives 0.21% (n = 360,000). S. pombe RE007 Vpr strain, BacTiter-Glo ATP luminescence, 24 h; control for the full effect not named in the record. Potency, µM (series often up to 92.2 µM), inactives show top-dose activity change, negative = less growth; active = well fitted falling curve with a large enough effect; inconclusive = small, poorly fitted or top-dose-only effect; inactive = no such curve, though single readings can be large or run the other way;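 note: % is set by controls: 0 for no effect and ±100 for the full control effect; nearly all actives have a fitted effect of over 50% in size; the assay follows cell death caused by Vpr and the record does not say whether a fall means rescue or toxicity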
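Fission yeast strain RE007, carrying one chromosomally integrated HIV-1 vpr copy, was seeded at OD 0.01 in PMG+AL medium with 23 nL pinned compound. After 24 h at 30 °C and 99% humidity, viability was read by BacTiter-Glo luminescence.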
SARS PLP yeast – qHTS of Yeast-based Assay for SARS-CoV PLP. Potency, µM (top dose mostly 32.9 µM), for inactives: at the highest dose activity, positive = growth rescue. S. cerevisiae expressing SARS-CoV PLpro, growth rescue; control for the full effect not named in the record. actives 0.19% (n = 330,000). AID 485353, 2010; note: 0% is about no effect; nearly all actives have a fitted effect of over 55% in size; growth read by luminescence after 48 h
Active calls of the source: *; [ ] = dose if it differs, or a comment. Unless noted, calls come from the whole dose curve; as a rule, active means well fitted rising curve with a large enough effect; inconclusive means small, poorly fitted or top-dose-only effect; inactive means no such curve, though single readings can be large or run the other way. Potency is the fitted concentration of half-maximal effect.

For CN1C(=O)C(=Cc2ccc(N3CCCCCC3)cc2)C(=O)N(C)C1=O the results were StopGo reporter 27.2%, MARV entry inh -7.5%[46.1 µM], Lassa entry inh -15.5%, NS1 inh -1.3%, RE007 growth inh -7.4% and SARS PLP yeast -2.2%.
`N#Cc1ccccc1NC(=S)NC(=O)C1CCC1` gave StopGo reporter -4.4%, MARV entry inh 3.4%[46.1 µM], Lassa entry inh -2.0%[46.1 µM], NS1 inh -12.5%, RE007 growth inh -0.3% and SARS PLP yeast -3.1%.
Screening CCC(C)(C)NC(=O)c1ccc2c(c1)OCCO2 returned StopGo reporter 50.2%[activator], MARV entry inh inconclusive, Lassa entry inh 26.2%, RE007 growth inh 0.3% and SARS PLP yeast -0.5%.
CCN(CC)S(=O)(=O)c1ccc(NC(=O)[C@@H](NC(=O)c2cc(OC)cc(OC)c2)C(C)C)cc1 was read as StopGo reporter -9.2%, MARV entry inh -18.0%[46.1 µM], Lassa entry inh inconclusive, RE007 growth inh -6.2% and SARS PLP yeast -1.4%.
`Fc1ccc(-c2ccc(/C=N/n3cnnc3)o2)cc1` gave StopGo reporter -10.8%, NS1 inh -15.7%, RE007 growth inh 1.1% and SARS PLP yeast 0.1%.
`Cc1c(C(=O)N2CCCCC2C)sc2nc3n(c(=O)c12)CCC3` (stereo unspecified) gave StopGo reporter -18.7%, NS1 inh 2.9%, RE007 growth inh 3.2% and SARS PLP yeast 1.0%.
For O=c1/c(=C/c2ccc(O)c([N+](=O)[O-])c2)sc2nc3ccccc3n12 the results were StopGo reporter -0.1%, MARV entry inh 8.6%[46.1 µM], Lassa entry inh inconclusive, RE007 growth inh -18.3% and SARS PLP yeast -1.1%.
`COc1ccc(OC)c(NC(=O)COC(=O)c2c3c(nc4ccccc24)CCCC3)c1` gave StopGo reporter inconclusive, MARV entry inh 5.17µM*, Cruzain noTriton 0.5%, Cruzain inh Det 0.2%, Lassa entry inh 20.6µM*, NS1 inh -10.3%, RE007 growth inh 5.4% and SARS PLP yeast -11.5%.
Screening Cc1cccc(C)c1OCCn1nc(C(=O)O)c2ccccc2c1=O returned StopGo reporter inconclusive, MARV entry inh 10µM*, Cruzain noTriton 4.3%, Cruzain inh Det -1.7%, Lassa entry inh 6.31µM*, NS1 inh -3.4%, RE007 growth inh -3.2% and SARS PLP yeast 0.6%.
`CCCCNC(=S)N(C)/N=C/c1c(C)[nH]c2ccccc12` gave StopGo reporter inconclusive, MARV entry inh inconclusive, Cruzain noTriton inconclusive, Cruzain inh Det inconclusive, Lassa entry inh inconclusive, NS1 inh -1.8%, RE007 growth inh 3.5% and SARS PLP yeast -7.1%.
Cc1ccc(-c2noc(CN3CCN(c4ccccc4F)CC3)n2)cc1 was read as StopGo reporter -0.4%, Cruzain noTriton 2.2%, Cruzain inh Det -4.8%, NS1 inh -42.9%, RE007 growth inh 9.8% and SARS PLP yeast -31.6%.
For CCOC(=O)N1CCN(S(=O)(=O)c2ccc(C(=O)NNc3nc4ccc(Cl)cc4s3)cc2)CC1 the results were StopGo reporter inconclusive, MARV entry inh 18.4µM*, Cruzain noTriton -22.0%, Cruzain inh Det -2.7%, Lassa entry inh inconclusive, NS1 inh 7.94µM*, RE007 growth inh 7.1% and SARS PLP yeast 10µM*.
For COCCn1c(C)cc(/C=C2\NC(=S)N(C)C2=O)c1C the results were StopGo reporter 0.0%, MARV entry inh -34.1%, Cruzain noTriton -10.3%, Cruzain inh Det -14.2%, Lassa entry inh 28.8%, NS1 inh 5.8%, RE007 growth inh -5.6% and SARS PLP yeast 2.6%.
O=C(Nc1nc(-c2ccccn2)cs1)c1ccccc1-n1cnnn1 was read as StopGo reporter -8.5%, NS1 inh -10.8%, RE007 growth inh -7.7% and SARS PLP yeast 0.2%.
For COc1ccc(-c2onc(C)c2C)cc1S(=O)(=O)NCCc1ccccc1 the results were StopGo reporter 22.1%, Cruzain noTriton -4.6%, Cruzain inh Det -2.5% and Lassa entry inh -16.8%[46.1 µM].
`CNC(=O)c1ccc(-c2nc(-c3ccccc3)cs2)cc1` gave StopGo reporter 19.9%, MARV entry inh inconclusive, Lassa entry inh inconclusive, NS1 inh -4.5%, RE007 growth inh 9.9% and SARS PLP yeast -2.2%.
`C(=N\Nc1ncnc2sc3c(c12)CCC3)/c1ccncc1` gave StopGo reporter inconclusive, MARV entry inh inconclusive, Cruzain noTriton -1.7%, Cruzain inh Det -6.9%, Lassa entry inh -3.1%, NS1 inh -17.5%, RE007 growth inh -0.6% and SARS PLP yeast -17.0%.
For Cc1c(NS(=O)(=O)c2cc(NC(=O)CCN3CCCC(C)C3)ccc2Cl)c(=O)n(-c2ccccc2)n1C (stereo unspecified) the results were StopGo reporter -2.7%, MARV entry inh -1.8%[46.1 µM], Lassa entry inh 12.8%, RE007 growth inh -0.2% and SARS PLP yeast 1.7%.
Cc1cc(NC(=O)Nc2ccc(F)c(Cl)c2)no1 was read as StopGo reporter 4.3%, MARV entry inh -16.5%, Cruzain noTriton 1.1%, Cruzain inh Det 3.4%, Lassa entry inh -1.0%, NS1 inh -48.6%, RE007 growth inh 2.2% and SARS PLP yeast -9.0%.
COc1ccccc1-n1nnnc1SCc1ccccc1 was read as StopGo reporter -27.2%, MARV entry inh -5.7%, Cruzain noTriton -9.2%, Cruzain inh Det -5.0%, Lassa entry inh inconclusive, NS1 inh -37.4%, RE007 growth inh 3.8% and SARS PLP yeast -7.3%.
Oc1ccc(-c2n[nH]c(=S)n2-c2ccc3c(c2)OCCO3)cc1 was read as StopGo reporter 27.8%, MARV entry inh 7.8%, Cruzain noTriton 2.6%, Cruzain inh Det -4.9%, Lassa entry inh inconclusive, NS1 inh 15.7%, RE007 growth inh 18.2% and SARS PLP yeast 24.4%.
`Cc1ccc(N2Cc3ccccc3OC(C)C2=O)cc1` (stereo unspecified) gave StopGo reporter 0.0%, Cruzain noTriton -0.3%, Cruzain inh Det -2.5%, NS1 inh -2.6%, RE007 growth inh 5.7% and SARS PLP yeast 10.2%.
For O=C(NCCN1CCN(S(=O)(=O)c2ccc([N+](=O)[O-])cc2)CC1)C(=O)Nc1ccccc1 the results were StopGo reporter -10.0%, MARV entry inh 0.3%, Lassa entry inh 8.2%, RE007 growth inh 4.0% and SARS PLP yeast 0.9%.
COc1ccccc1N1CCN(C(=O)Cn2ncc3c(=O)oc4ccc(C)cc4c32)CC1 was read as StopGo reporter 0.0%, MARV entry inh inconclusive, Cruzain noTriton -11.0%, Cruzain inh Det -1.9% and Lassa entry inh -15.1%[46.1 µM].
`O=C(CC1Nc2ccccc2NC1=O)NC1CCCCC1` (stereo unspecified) gave StopGo reporter 16.6%, MARV entry inh 9.9%, Cruzain noTriton 10.8%, Cruzain inh Det -4.0%, Lassa entry inh -3.3%, NS1 inh 1.8%, RE007 growth inh -3.1% and SARS PLP yeast -3.7%.
For c1cnc(SCCCOc2ccc3ccccc3c2)nc1 the results were StopGo reporter 42.1%[activator], MARV entry inh -20.0%[46.1 µM], Cruzain noTriton 6.3%, Cruzain inh Det 2.7%, Lassa entry inh inconclusive, NS1 inh -15.1%, RE007 growth inh -18.8% and SARS PLP yeast -0.9%.
For COCCNC(=O)C(C)OC(=O)C1=Cc2ccccc2OC1 (stereo unspecified) the results were StopGo reporter 14.5%, NS1 inh 0.7%, RE007 growth inh 1.1% and SARS PLP yeast 0.3%.
For CC(=O)c1ccc(S(=O)(=O)N2CCn3cccc3C2c2ccc(F)c(F)c2)cc1 (stereo unspecified) the results were StopGo reporter inconclusive, Cruzain noTriton -1.9%, Cruzain inh Det -8.3% and Lassa entry inh -27.6%[46.1 µM].
COc1ccc(NS(=O)(=O)c2ccc(-c3cnc(C4CC4)o3)cc2)cc1OC was read as StopGo reporter -20.0%, NS1 inh 3.7%, RE007 growth inh -3.0% and SARS PLP yeast -2.8%.
For Cc1nc(NCCCn2ccnc2)c2oc3ccccc3c2n1 the results were StopGo reporter -18.5%, MARV entry inh -2.4%, Cruzain noTriton -10.6%, Cruzain inh Det 0.4%, Lassa entry inh 17.9%, NS1 inh inconclusive, RE007 growth inh -12.6% and SARS PLP yeast 11.9%.
For O=C(NCCCN1CCN(c2ccccc2)CC1)c1ccc2nc(CCc3ccccc3)oc2c1 the results were StopGo reporter inconclusive, Cruzain noTriton -2.4%, Cruzain inh Det -0.8% and Lassa entry inh inconclusive.
For Cc1ccc(C)c(SCC(=O)NC(=O)NCc2ccccc2)c1 the results were StopGo reporter -18.8%, MARV entry inh -12.3%, Cruzain noTriton 1.2%, Cruzain inh Det -2.4%, Lassa entry inh inconclusive, NS1 inh -12.5%, RE007 growth inh 14.0% and SARS PLP yeast 10.7%.
`Cc1ccc(C2(O)C(=O)c3ccccc3C2=O)c(O)c1C` gave StopGo reporter -13.7%, MARV entry inh -10.1%[46.1 µM], Lassa entry inh 5.9%, NS1 inh -1.7%, RE007 growth inh 33.2% and SARS PLP yeast -1.2%.
For Cc1c(C(=O)NN)nc2ccccn12 the results were StopGo reporter -8.8%, Cruzain noTriton -4.6%, Cruzain inh Det -1.7%, NS1 inh 3.6%, RE007 growth inh -11.8% and SARS PLP yeast 14.7%.
Screening COc1ccc(CN2CCC(=O)N([C@H](CO)Cc3ccccc3)CC2)cc1OC returned StopGo reporter -3.4%, NS1 inh 15.0%, RE007 growth inh 7.0% and SARS PLP yeast 12.7%.
Cc1ccc(-n2ncc3c2CC(C)(C)CC3NC(=O)c2ccccn2)cc1 (stereo unspecified) was read as StopGo reporter -17.4%, MARV entry inh inconclusive, Lassa entry inh -21.3%[46.1 µM], NS1 inh -12.7%, RE007 growth inh 13.3% and SARS PLP yeast -10.5%.
